MT1-MMP act inh = MT1-MMP (human) activation inhibition | P50281 | HT1080 RFP-PRO-GFP cells, GFP/RFP ratio fluorescence, overnight; percent of plate control window, DMSO zero | GFP/RFP ratio change, % at 20 µM | hit rate 0.061% among 360,000;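 active = GFP/RFP ratio change of at least 30% with cell ATP level not reduced by more than half and red fluorescence within 50% of control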; also: strong numbers were not always called active
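Assay system – RFP-PRO-GFP reporter HT1080 cells · Compound dosing – single dose of 20 µM compound, 1% DMSO final · Incubation – overnight compound exposure at 37 °C · Measure – GFP/RFP fluorescence ratio · Benchmarks – DMSO wells and RFP-L50D-GFP cells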
HIV Env fusion = blocks HIV Env-driven cell-cell fusion; HeLa-JRFL Env/CEM21 cell fusion, luciferase; inhibition, % at 12.3 µM; hit rate 1.1% among 360,000;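 active = mean replicate inhibition score of at least 50 and every replicate individually at or above 50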;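 also: 0% = plate neutral controls and 100% = maraviroc near 300 nM; one replicate is shown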
UUG fidelity = yeast start codon fidelity modulation; hit rate 0.13% among 350,000; activity score, % at 18.7 µM; S. cerevisiae UUG-firefly luciferase reporter, luminescence/redox ratio; AID 602363;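 active = replicate mean at a twofold rise or more, about +100% in these data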;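 also: firefly luciferase made from a UUG start codon reports start codon fidelity; reporter light over untreated wells divided by growth signal over untreated wells; some hits fall short of that in this replicate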
CSC inhib = cancer stem cell inhibition; hit rate 1.1% among 300,000; AID 2717; inhibition, % at 7.5 µM; cancer stem cell-like cells viability, luminescence;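 active = mean at 75% or more and at least half the replicates too; tested in HMLE shEcad cells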;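 also: 0% = median of negative and 100% = median of positive control wells; the first replicate is given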
MT1-MMP act inh RFP = second read-out of MT1-MMP act inh, no call of its own (marks repeat the call); RFP signal change, %; measured here: RFP expression control read;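 0 = vehicle wells; hits needed this value within 50% of zero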
The depositor's hits bear a star; i = inactive; . = no result given; & = joins results of further samples; [ ] = another dose, or the depositor's remark. The list is partial; the hit share may differ from the screen's.

The opening two compounds, ahead of the listing:
Values run as follows: MT1-MMP act inh | MT1-MMP act inh RFP | HIV Env fusion | UUG fidelity | CSC inhib
> Cc1cc(N2CCNC[C@@H]2C)ccc1N1CCN[C@H](C)C1
    . | . | -10 | . | .
> O=C(NC[C@H]1CC[C@@H]2NC[C@@H]2O1)C1CCCC1
    . | . | -22[16.7 µM] | . | .

The whole of this part, previewed entries included:
Values run as follows: MT1-MMP act inh | MT1-MMP act inh RFP | HIV Env fusion | UUG fidelity | CSC inhib
> Cc1cc(N2CCNC[C@@H]2C)ccc1N1CCN[C@H](C)C1
    . | . | -10 | . | .
> O=C(NC[C@H]1CC[C@@H]2NC[C@@H]2O1)C1CCCC1
    . | . | -22[16.7 µM] | . | .
> CN1[C@@H]2Cn3c(cccc3=O)[C@H]1[C@@H](C(=O)NCC1CC1)[C@@H]2CO
    . | . | -2[16.7 µM] | . | .
> O=C(O)[C@H]1[C@H](CO)[C@H]2Cn3c(ccc(-c4cccnc4)c3=O)[C@@H]1N2C(=O)Nc1cc(F)ccc1F
    . | . | -4[16.7 µM] | . | .
> O=S(=O)(c1ccc2ccccc2c1)N1Cc2cc(Br)ccc2-n2nncc2C1
    . | . | 23 | . | .
> COC(=O)[C@@H]1[C@@H](CO)[C@@H]2Cn3c(ccc(-c4ccc(F)cc4)c3=O)[C@H]1N2Cc1cccnc1
    . | . | 6[16.7 µM] | . | .
> Oc1cc(Cl)c(Cl)cc1Cl
    . | . | -4 | . | .
> O=C(NC[C@H]1CC[C@H]2[C@H](CN2Cc2cccnc2)O1)C1CC1
    . | . | -3[16.7 µM] | . | .
> N#Cc1ccc(NC(=S)N2Cc3cc(Br)ccc3-n3nncc3C2)cc1
    . | . | 23 | . | .
> CC12CCC(=O)CC1CCC1C2C(=O)CC2(C)C1CCC2(C)O (configuration not stated)
    -1 | 1 | . | . | .
> CCOC(=O)[C@]12Cc3cc(Cl)ccc3[C@H]1N(CC(=O)OC)C(=O)c1ccccc12
    -3 | -25 | . | . | .
> c1cc2c(cc1NC1=NCCO1)CCCC2
    3 | 1 | . | . | .
> CN(Cc1cccc(-c2ccncc2)c1)C(=O)Oc1ccccc1Cc1ccccc1
    4 | -32 | . | . | .
> c1cc(OCCN2CC2)ccn1
    -2 | 2 | . | . | .
> CC(C)CC1(CCc2ccccc2)C(=O)NC(=O)NC1=O
    -7 | -2 | . | . | .
> CCOC(=O)[C@]12Cc3cc(Cl)ccc3[C@H]1N(C1CCCCC1)C(=O)c1ccccc12
    -13 | -28 | . | . | .
> O=P(O)(O)CN1CCNCCN(CP(=O)(O)O)CCNCC1
    -5 | 0 | . | . | .
> CC(C)C[C@H]1COc2cc(N3CCN(C)CC3)ccc2S(=O)(=O)N1
    0 | 5 | . | . | .
> C[C@]12CC[C@H](O)CC1C(=O)CC1C2CC[C@@]2(C)C1CC[C@@H]2O (some centres not stated)
    4 | 6 | . | . | 8
> CC1(CCO)CC(C)(CCc2ccccc2)OO1 (configuration not stated)
    . | . | -22[16.7 µM] | -5 | .

Molecules above that contain fluorine, in the order listed:
Values run as follows: MT1-MMP act inh | MT1-MMP act inh RFP | HIV Env fusion | UUG fidelity | CSC inhib
> O=C(O)[C@H]1[C@H](CO)[C@H]2Cn3c(ccc(-c4cccnc4)c3=O)[C@@H]1N2C(=O)Nc1cc(F)ccc1F
    . | . | -4[16.7 µM] | . | .
> COC(=O)[C@@H]1[C@@H](CO)[C@@H]2Cn3c(ccc(-c4ccc(F)cc4)c3=O)[C@H]1N2Cc1cccnc1
    . | . | 6[16.7 µM] | . | .

Carrying on.
Values run as follows: MT1-MMP act inh | MT1-MMP act inh RFP | HIV Env fusion | UUG fidelity | CSC inhib
> C#C[C@]1(O)CC[C@H]2[C@@H]3[C@H](O)C[C@H]4C[C@@H](O)CC[C@]4(C)[C@H]3CC[C@@]21C
    . | . | 14 | -14 | .
> Cc1ccc(OC(=O)N(C)C[C@H]2OCc3cnnn3CCCC(=O)N([C@H](C)CO)C[C@H]2C)cc1
    . | . | 23 | 10 | .
> C=CCN1C(=S)N[C@@H]2c3ccccc3O[C@@]1(C)[C@@H]2C(=O)OCC
    . | . | 6[16.7 µM] | -10 | .
> O=[N+]([O-])c1ccc(N(CCO)CCO)c2c1no[n+]2[O-]
    . | . | i | 61 | .
> C[C@H]1CN([C@@H](C)CO)C(=O)CCCn2nncc2CO[C@@H]1CN(C)C(=O)Oc1ccc2ccccc2c1
    . | . | 16[16.7 µM] | 2 | .
> C[C@@H]1CN([C@H](C)CO)C(=O)CCCn2cc(nn2)CO[C@@H]1CN(C)C(=O)Oc1cccc2ccccc12
    . | . | 1[16.7 µM] | 2 | .
> S=P1(Oc2ccccc2)Nc2ccccc2N1
    3 | 4 | . | -4 | .
> CC(C)CNC(=O)/C=C/C=C/CCCCCC/C=C/c1ccc2c(c1)OCO2
    9 | 0 | . | -8 | .
> CCOc1cc(C=O)ccc1O
    -2 | -1 | . | -14 | .
> CCC1([N+](=O)[O-])COP(N)(=O)OC1 (configuration not stated)
    -21 | 5 | . | -19 | .
> CN1C2CCC1CC(OC(=O)c1cccc(O)c1)C2 (configuration not stated)
    -7 | 0 | . | -7 | .
> NC1(C(=O)O)CCCc2ccc(N(CCCl)CCCl)cc21 (configuration not stated)
    1 | 1 | . | -1 | .
> CC12CCC(=O)C=C1CCC1C2CCC2(C)C(O)(C(=O)CO)CCC12O (configuration not stated)
    3 | 4 | . | -7 | .
> Oc1ccc2c3c1OC1c4[nH]c5ccccc5c4C[C@@]4(O)C(C2)N(CC2CC2)CC[C@]314 (some centres not stated)
    -8 | 2 | . | -7 | .
> CCOC(=O)C1(c2ccccc2)CCN(CCc2ccc(NC(=O)CCC(=O)O)cc2)CC1
    5 | 4 | . | -2 | .
> O=C(NCC1=C(c2ccc3ccccc3c2)C[C@@H]2CC[C@H]1N2Cc1ccco1)c1ccc([N+](=O)[O-])cc1
    4 | 1 | . | -25 | .
> c1ccc(-c2ccncc2)cc1
    5 | 8 | . | -12 | .
> COC12CCC3(CC1C(C)(O)C(C)(C)C)[C@H]1Cc4ccc(OC5OC(C(=O)O)[C@@H](O)C(O)[C@H]5O)c5c4[C@@]3(CCN1CC1CC1)C2O5 (some centres not stated)
    -2 | 5 | . | -1 | .
> Oc1ccccc1Cl
    7 | 4 | . | 0 | .
> C[C@]12CC[C@@H](O)C[C@@H]1CC[C@@H]1[C@@H]2CC[C@]2(C)C(=O)[C@H](O)C[C@@H]12
    0 | 1 | . | -8 | .

Remaining list, next part:
Labels used below: A = MT1-MMP act inh; B = MT1-MMP act inh RFP; C = HIV Env fusion; D = UUG fidelity; E = CSC inhib
C=CCN1CC[C@]23c4c5ccc(O)c4OC2C(O)C=CC3[C@H]1C5 (some centres not stated)
  A: -2; B: 4; C: .; D: -4; E: .

CC(=O)/C=C/c1ccccc1
  A: 3; B: 3; C: .; D: -11; E: .

Cc1ccc2c(C)cccc2c1
  A: 1; B: 5; C: .; D: -11; E: .

CC(C)C1CN1CC(O)Cn1ccnc1[N+](=O)[O-] (configuration not stated)
  A: -2; B: 3; C: .; D: -9; E: .

CCN[C@@H](C)Cc1cccc(C(F)(F)F)c1
  A: -1; B: 3; C: .; D: -14; E: .

C[C@@H]1CN([C@@H](C)CO)C(=O)CCCn2cc(nn2)CO[C@H]1CN(C)C(=O)Oc1cccc2ccccc12
  A: -2; B: 0; C: .; D: -9&26; E: .

CCOc1ccc(C=C2C(=O)NC(=S)NC2=O)cc1OCC
  A: -1; B: 1; C: .; D: -13; E: .

c1cc2c(cc1[C@H]1OCC3C1CO[C@@H]3c1ccc3c(c1)OCO3)OCO2 (some centres not stated)
  A: -3; B: -19; C: .; D: -11; E: .

O=C(OC1CC2CCC(N2)C1C(=O)O)c1ccccc1 (configuration not stated)
  A: -1; B: 5; C: .; D: -8; E: .

CN1C2CCC1C(C(=O)O)C(O)C2 (configuration not stated)
  A: 1; B: 7; C: .; D: -5; E: .

COc1ccc2c3c1OC1C(O)C=CC4[C@@H](C2)N(C)CC[C@]314 (some centres not stated)
  A: 1; B: 6; C: .; D: -8; E: .

C[C@H]1[C@@H](OS(=O)(=O)O)C[C@@H]2C[C@H]([C@@H](O)c3cc(=O)[nH]c(=O)[nH]3)NC3=NC[C@H]1N32
  A: -46; B: -38; C: .; D: -11; E: .

CC(=O)OC1CC2OC3C=C(C)CCC3(C)C1(C)C21CO1 (configuration not stated)
  A: -37; B: -44; C: .; D: 49; E: .

COc1ccc(CCNCc2cc(OC)cc(OC)c2)cc1
  A: 1; B: 2; C: .; D: 0; E: .

CC12CCC3C(CCC4CC(=O)OCC43C)C1CCC2O (configuration not stated)
  A: -2; B: -2; C: .; D: -9; E: .

c1ccc(C2(NC3=NCCO3)CCCCC2)cc1
  A: -1; B: 4; C: .; D: -13; E: .

CCC(C)C1NC(=O)C2CCCN2C(=O)C(CC(C)C)OC(=O)CCNC(=O)C(C)N(C)C(=O)C(C(C)C)N(C)C1=O (configuration not stated)
  A: 3; B: 2; C: 14; D: .; E: .

CCOC(=O)[C@]12Cc3cc(C)ccc3[C@H]1N(C1CCCCC1)C(=O)c1cc(OC)ccc12
  A: -25; B: -35; C: 23; D: .; E: .

COc1ccc(C2C=C(C)Oc3c2c(=O)oc2ccccc32)cc1OC (configuration not stated)
  A: 1; B: -3; C: -4; D: .; E: .

COC1C(C)OC(OC2CC(C)(O)Cc3cc4c(c(O)c32)C(=O)c2c(O)cc3c(c2C4=O)OC2OC3(C)C(O)C(N(C)C)C2O)C(OC)C1(C)OC (configuration not stated)
  A: -32; B: 33; C: 71*; D: .; E: .

CC1([N+](=O)[O-])COP(=O)(NC2CCCC2)OC1 (configuration not stated)
  A: 1; B: -3; C: 14; D: .; E: .

Oc1ccc(CCNCc2cc3c(cc2Br)OCO3)cc1
  A: 2; B: 2; C: -29; D: .; E: .

CC(=O)CC(c1ccc2c(c1)OCO2)c1c(O)c2ccccc2oc1=O (configuration not stated)
  A: 5; B: -3; C: -4; D: .; E: .

CCOC(=O)[C@]12Cc3ccccc3[C@H]1N(CCC(=O)OC)C(=O)c1cc(OC)ccc12
  A: -16; B: -15; C: 31; D: .; E: .

CCC1CCC(C)N(N=O)C1 (configuration not stated)
  A: 2; B: 6; C: 6; D: .; E: .

Four entries picked at random from those above:
Labels used below: A = MT1-MMP act inh; B = MT1-MMP act inh RFP; C = HIV Env fusion; D = UUG fidelity; E = CSC inhib
CC1([N+](=O)[O-])COP(=O)(NC2CCCC2)OC1 (configuration not stated)
  A: 1; B: -3; C: 14; D: .; E: .

Oc1ccc(CCNCc2cc3c(cc2Br)OCO3)cc1
  A: 2; B: 2; C: -29; D: .; E: .

CC(C)C1CN1CC(O)Cn1ccnc1[N+](=O)[O-] (configuration not stated)
  A: -2; B: 3; C: .; D: -9; E: .

CC(=O)CC(c1ccc2c(c1)OCO2)c1c(O)c2ccccc2oc1=O (configuration not stated)
  A: 5; B: -3; C: -4; D: .; E: .

Remaining list, next part
Labels used below: A = MT1-MMP act inh; B = MT1-MMP act inh RFP; C = HIV Env fusion; D = UUG fidelity; E = CSC inhib
CCC(=O)OC1CCC2C3CCC4CC(=O)C=CC4(C)C3CCC12C (configuration not stated)
  A: 11; B: -2; C: 45; D: .; E: .

CC1(C)CC(=O)CC(C)(C)N1O
  A: 5; B: 4; C: -55; D: .; E: .

COc1cc(C2c3cc4c(c(O)c3CC3COC(=O)C32)OCO4)cc(OC)c1OC (configuration not stated)
  A: 24; B: 10; C: 8; D: .; E: .

O=C(C1CCCCC1)N1Cc2ccccc2-n2nncc2C1
  A: 2; B: 5; C: 12; D: .; E: .

C[C@]12CCC3C(CC[C@@H]4[C@H]5O[C@H]5CC[C@]34C)C1CC[C@@H]2O (some centres not stated)
  A: 4; B: -2; C: -2; D: .; E: .

Cc1nc(-c2cccc(CN(C)C(=O)Oc3ccc([N+](=O)[O-])cc3)c2)no1
  A: -1; B: -12; C: 24; D: .; E: .

O=C1NC(=O)C(=CCc2ccccc2)C(=O)N1
  A: -1; B: 0; C: -9; D: .; E: .

Cc1cccc(C(O)(C(=O)O)c2ccccc2)c1 (configuration not stated)
  A: 1; B: 2; C: 3; D: .; E: .

COc1ccc2nc(-c3ccc(CN4CCC(n5c(=O)[nH]c6ccccc65)CC4)cc3)c(-c3ccccc3)nc2c1
  A: 4; B: -8; C: -112; D: .; E: .

Ordered by molar mass (rising): some entries from above
Labels used below: A = MT1-MMP act inh; B = MT1-MMP act inh RFP; C = HIV Env fusion; D = UUG fidelity; E = CSC inhib
CC1(C)CC(=O)CC(C)(C)N1O
  A: 5; B: 4; C: -55; D: .; E: .

Cc1cccc(C(O)(C(=O)O)c2ccccc2)c1 (configuration not stated)
  A: 1; B: 2; C: 3; D: .; E: .

O=C(C1CCCCC1)N1Cc2ccccc2-n2nncc2C1
  A: 2; B: 5; C: 12; D: .; E: .

Cc1nc(-c2cccc(CN(C)C(=O)Oc3ccc([N+](=O)[O-])cc3)c2)no1
  A: -1; B: -12; C: 24; D: .; E: .

Source: PubChem BioAssay
